Insulin prom inh – TRM-6 insulin promoter activity inhibition. AID 1273. hit rate 0.9% among 130,000. TRM-6 cells (human fetal islet line), insulin promoter-eGFP reporter, imaging; reporter expression induced with tamoxifen. inhibition, % at 2 µM;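 active = inhibition above the mean plus 3 SD, with well images judged a real hit on visual review, cut at about 60% in these data, passing the limit was not always enough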
PKD1 inh – PKD1 (human) kinase inhibition; hit rate 0.056% among 200,000; PKD1 kinase fluorescence polarization assay; Q15139; AID 797; inhibition, %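 (about 10 µM by stock and volumes)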;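 active = inhibition of 50% or more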;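 note: controls were vehicle for no effect and a reference inhibitor for full effect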
Target sequence (Q15139 whole entry, looked up): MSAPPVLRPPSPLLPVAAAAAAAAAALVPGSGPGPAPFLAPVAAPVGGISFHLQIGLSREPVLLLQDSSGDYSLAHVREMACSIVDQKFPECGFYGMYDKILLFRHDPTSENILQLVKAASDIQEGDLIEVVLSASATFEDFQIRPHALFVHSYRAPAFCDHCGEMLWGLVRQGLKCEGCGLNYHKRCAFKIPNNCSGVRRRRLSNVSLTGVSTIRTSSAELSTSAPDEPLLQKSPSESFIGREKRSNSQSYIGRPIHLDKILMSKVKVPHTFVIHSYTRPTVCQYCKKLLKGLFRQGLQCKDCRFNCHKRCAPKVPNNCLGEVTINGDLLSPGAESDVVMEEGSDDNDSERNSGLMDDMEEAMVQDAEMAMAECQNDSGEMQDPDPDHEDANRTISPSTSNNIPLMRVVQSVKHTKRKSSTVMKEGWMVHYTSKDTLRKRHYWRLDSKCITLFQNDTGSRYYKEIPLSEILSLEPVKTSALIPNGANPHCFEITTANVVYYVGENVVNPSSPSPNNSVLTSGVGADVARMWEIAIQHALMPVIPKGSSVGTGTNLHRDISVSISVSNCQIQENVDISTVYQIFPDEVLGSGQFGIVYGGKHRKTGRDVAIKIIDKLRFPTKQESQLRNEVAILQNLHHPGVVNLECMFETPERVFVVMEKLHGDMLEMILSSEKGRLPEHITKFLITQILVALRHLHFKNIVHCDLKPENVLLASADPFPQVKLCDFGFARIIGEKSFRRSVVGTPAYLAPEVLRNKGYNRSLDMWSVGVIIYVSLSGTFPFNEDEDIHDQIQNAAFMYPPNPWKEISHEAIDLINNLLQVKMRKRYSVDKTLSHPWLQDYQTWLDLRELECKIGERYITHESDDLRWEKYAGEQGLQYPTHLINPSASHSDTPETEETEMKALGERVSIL
GALR2 ag – agonists of human galanin receptor 2 (GALR2); O43603; GALR2-expressing cells, agonist activation read-out; activation, %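 (tested at 5 µM)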; hit rate 0.48% among 140,000; AID 803;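 active = above mean plus 3 SD of all compounds, about 5% in these data, not always enough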;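 note: 0% = vehicle buffer wells and 100% = reference agonist at full effect; tested in CHO reporter cells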
RGS16-Gao – modulates binding between human RGS16 and Galphao; O15492+P09471; bead-based flow cytometry RGS16-Galphao binding, fluorescence; actives lie on both sides; binding response (% of control), % at 10 µM; hit rate 0.38% among 220,000;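 active = below 25% or above 175%, edge rows of some plates excepted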;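 note: Galphao activated by GDP with aluminum fluoride before binding; 100% = wells without compound and 0% = beads without RGS; some results beyond the cut were filed as inactive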
HSV augment – HSV replication enhancement; HSV replication augmentation in cells, fold increase; maximum fold increase; hit rate 0.005% among 220,000; AID 1956;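 active = peak rise of 1.5-fold or more in the series; tested in PC3 cells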;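 note: first round at 10 µM; read as green reporter fluorescence; hits show the peak of a series up to 25 µM; 1 = signal of infected wells without compound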
Insulin prom inh cell count – further read-out of Insulin prom inh, marked with its call; normalized cell count, %; measured here: cell count, toxicity; reference of the scale not given here;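 cells exposed to compound for 48 h; stained nuclei by imaging scaled within each plate; lower means fewer cells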
HSV augment primary fold – second read-out of HSV augment, no call of its own (marks repeat the call); fold increase; compound at 10 µM; measured here: primary screen fold increase 10 uM; tested in PC3 cells;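 GFP signal in the first replicate; 1 = infected wells without compound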
* = called active by the depositor.

The opening 8 compounds (preview)
Screening CCCc1cc(=O)n2[nH]c(NCc3c(F)cccc3Cl)nc2n1 returned Insulin prom inh 49, PKD1 inh -5, GALR2 ag -0.5, RGS16-Gao 109, HSV augment inactive, Insulin prom inh cell count 154 and HSV augment primary fold 0.92.
Screening c1ccc2c(Oc3ccc4c(c3)OCO4)nncc2c1 returned PKD1 inh 2, GALR2 ag -1.2, RGS16-Gao 99, HSV augment inactive and HSV augment primary fold 0.99.
CCOC(=O)N1CCN(C(=O)C(C)SCc2ccccc2)CC1 (stereo not given) was read as Insulin prom inh -33, PKD1 inh -1, GALR2 ag -1.0, RGS16-Gao 106, HSV augment inactive, Insulin prom inh cell count 108 and HSV augment primary fold 1.
N#Cc1ccc(C(=O)Nc2cccc3ncccc23)c(F)c1 was read as PKD1 inh 1, GALR2 ag -1.4, RGS16-Gao 106, HSV augment inactive and HSV augment primary fold 0.94.
Screening COCCn1c(-c2cc(OC)c(OC)c(OC)c2)nc2oc3cc(OC)ccc3c(=O)c2c1=O returned RGS16-Gao 101, HSV augment inactive and HSV augment primary fold 1.2.
CCC1(C)Cc2ccccc2C(=O)N1 (stereo not given) was read as RGS16-Gao 156, HSV augment inactive and HSV augment primary fold 0.83.
`C/C(=N\Nc1ccc([N+](=O)[O-])cc1[N+](=O)[O-])c1ccc(-n2nncc2C(C)(C)C)cc1` gave PKD1 inh 1, GALR2 ag -1.2, RGS16-Gao 102, HSV augment inactive and HSV augment primary fold 0.86.
CS(=O)c1ccccc1COC(=O)Nc1ccccc1 (stereo not given) was read as PKD1 inh 5, RGS16-Gao 108, HSV augment inactive and HSV augment primary fold 0.94.

The whole of this part, from the start:
Screening CCCc1cc(=O)n2[nH]c(NCc3c(F)cccc3Cl)nc2n1 returned Insulin prom inh 49, PKD1 inh -5, GALR2 ag -0.5, RGS16-Gao 109, HSV augment inactive, Insulin prom inh cell count 154 and HSV augment primary fold 0.92.
Screening c1ccc2c(Oc3ccc4c(c3)OCO4)nncc2c1 returned PKD1 inh 2, GALR2 ag -1.2, RGS16-Gao 99, HSV augment inactive and HSV augment primary fold 0.99.
CCOC(=O)N1CCN(C(=O)C(C)SCc2ccccc2)CC1 (stereo not given) was read as Insulin prom inh -33, PKD1 inh -1, GALR2 ag -1.0, RGS16-Gao 106, HSV augment inactive, Insulin prom inh cell count 108 and HSV augment primary fold 1.
N#Cc1ccc(C(=O)Nc2cccc3ncccc23)c(F)c1 was read as PKD1 inh 1, GALR2 ag -1.4, RGS16-Gao 106, HSV augment inactive and HSV augment primary fold 0.94.
Screening COCCn1c(-c2cc(OC)c(OC)c(OC)c2)nc2oc3cc(OC)ccc3c(=O)c2c1=O returned RGS16-Gao 101, HSV augment inactive and HSV augment primary fold 1.2.
CCC1(C)Cc2ccccc2C(=O)N1 (stereo not given) was read as RGS16-Gao 156, HSV augment inactive and HSV augment primary fold 0.83.
`C/C(=N\Nc1ccc([N+](=O)[O-])cc1[N+](=O)[O-])c1ccc(-n2nncc2C(C)(C)C)cc1` gave PKD1 inh 1, GALR2 ag -1.2, RGS16-Gao 102, HSV augment inactive and HSV augment primary fold 0.86.
CS(=O)c1ccccc1COC(=O)Nc1ccccc1 (stereo not given) was read as PKD1 inh 5, RGS16-Gao 108, HSV augment inactive and HSV augment primary fold 0.94.
Screening Cc1nn(C)cc1CNC(=O)CCC(=O)O returned PKD1 inh -12, GALR2 ag -0.9, RGS16-Gao 104, HSV augment inactive and HSV augment primary fold 0.94.
`COC(=O)c1ccc(-c2ncc(-c3cccc4ccccc34)o2)cc1` gave Insulin prom inh -5, PKD1 inh -2, GALR2 ag -2.9, RGS16-Gao 94, HSV augment inactive, Insulin prom inh cell count 167 and HSV augment primary fold 1.
For Cc1cc2ccccn2c1C(=O)c1nc(NCc2ccco2)ncc1Cl the results were Insulin prom inh 38, PKD1 inh 3, RGS16-Gao 59, HSV augment inactive, Insulin prom inh cell count 106 and HSV augment primary fold 1.1.
Screening CCOc1c(Cl)cc(C(=O)Nc2ccccc2-c2ccccc2)cc1Cl returned PKD1 inh 12, GALR2 ag -0.3 and RGS16-Gao 102.
Screening COc1ccc2c(c1)CC/C(=C/c1ccncc1)C2=O returned Insulin prom inh -25, PKD1 inh -5, GALR2 ag -0.2, RGS16-Gao 95, HSV augment inactive, Insulin prom inh cell count 72 and HSV augment primary fold 0.94.
COC(=O)C1CCN(c2ccc([N+](=O)[O-])cc2)CC1 was read as Insulin prom inh -36, PKD1 inh -6, RGS16-Gao 105, HSV augment inactive, Insulin prom inh cell count 138 and HSV augment primary fold 0.92.
For CCOc1ccc(-n2cc(-c3ccc(OC)c(OC)c3)[nH]c2=S)cc1 the results were PKD1 inh 4, RGS16-Gao 90, HSV augment inactive and HSV augment primary fold 1.
For Cc1cccc(Nc2nc3c(c(=O)n(C)c(=O)n3C)n2CC(O)CO)c1 (stereo not given) the results were Insulin prom inh 33, PKD1 inh -14, GALR2 ag -1.2, RGS16-Gao 101, HSV augment inactive, Insulin prom inh cell count 93 and HSV augment primary fold 0.83.
For CCCOc1ccc(N2C(=O)CC(SCCN)C2=O)cc1 (stereo not given) the results were Insulin prom inh -30, PKD1 inh 2, GALR2 ag -1.5, RGS16-Gao 112, HSV augment inactive, Insulin prom inh cell count 170 and HSV augment primary fold 0.88.
For O=C(Nc1nccs1)c1ccc(S(=O)(=O)NCc2cccs2)cc1 the results were Insulin prom inh 15, PKD1 inh -6, GALR2 ag -1.8, RGS16-Gao 103, HSV augment inactive, Insulin prom inh cell count 114 and HSV augment primary fold 1.3.
`Cc1oc2cc3c(C(=O)N4CCCCC4)c(C)oc3cc2c1C(=O)N1CCCCC1` gave PKD1 inh -2, GALR2 ag -0.5, RGS16-Gao 99, HSV augment inactive and HSV augment primary fold 0.89.
Screening O=[N+]([O-])c1ccc(Sc2nnnn2-c2ccccc2)nc1 returned PKD1 inh 2, RGS16-Gao 97, HSV augment inactive and HSV augment primary fold 0.64.
For O=C(Nc1ccccc1)NC1CCCCNC1=O (stereo not given) the results were RGS16-Gao 89, HSV augment inactive and HSV augment primary fold 1.2.
Screening Cc1ccc(C)c(Nc2c([N+](=O)[O-])c(=O)oc3ccccc23)c1 returned RGS16-Gao 103, HSV augment inactive and HSV augment primary fold 0.86.
For O=C(CCc1nnc(-c2ccsc2)o1)N1CCc2c(Cl)cccc2C1 the results were Insulin prom inh -60, PKD1 inh -3, RGS16-Gao 100, HSV augment inactive, Insulin prom inh cell count 82 and HSV augment primary fold 0.97.
For CCN(CC)C(=O)CN1CCN(c2ccccc2F)CC1 the results were PKD1 inh 5, GALR2 ag -3.6, RGS16-Gao 112, HSV augment inactive and HSV augment primary fold 0.96.
`O=C1C=CC(=O)N1N(c1ccccc1)c1ccccc1` gave Insulin prom inh 62, PKD1 inh -12, GALR2 ag 0.2, RGS16-Gao 94, HSV augment inactive, Insulin prom inh cell count 97 and HSV augment primary fold 0.88.
For CC(C)OC(=O)c1cccnc1N1CCN(c2ccc(F)cc2)CC1 the results were Insulin prom inh -50, PKD1 inh -5, GALR2 ag -0.8, RGS16-Gao 106, HSV augment inactive, Insulin prom inh cell count 109 and HSV augment primary fold 0.9.
For O=C(CSc1ccc(-c2ccco2)nn1)NC1CCCC1 the results were Insulin prom inh -38, PKD1 inh -6, RGS16-Gao 100 and Insulin prom inh cell count 108.
For CCOC(=O)COc1cc([N+](=O)[O-])cc2cccnc12 the results were Insulin prom inh 7, PKD1 inh -2, RGS16-Gao 102, HSV augment inactive, Insulin prom inh cell count 101 and HSV augment primary fold 0.96.
Screening COc1ccc(S(=O)(=O)Nc2cc(C)on2)cc1OC returned Insulin prom inh 34, PKD1 inh -16, GALR2 ag -0.6, RGS16-Gao 100, HSV augment inactive, Insulin prom inh cell count 76 and HSV augment primary fold 1.
`Cn1c2ccccc2c(=O)c2c(=O)n(Cc3ccccc3)c(-c3ccc(F)cc3)nc21` gave RGS16-Gao 97, HSV augment inactive and HSV augment primary fold 0.87.

2 consecutive entries from above, for reference:
For CCN(CC)C(=O)CN1CCN(c2ccccc2F)CC1 the results were PKD1 inh 5, GALR2 ag -3.6, RGS16-Gao 112, HSV augment inactive and HSV augment primary fold 0.96.
`O=C1C=CC(=O)N1N(c1ccccc1)c1ccccc1` gave Insulin prom inh 62, PKD1 inh -12, GALR2 ag 0.2, RGS16-Gao 94, HSV augment inactive, Insulin prom inh cell count 97 and HSV augment primary fold 0.88.

More entries follow:
`CCOCCCN(C(=O)Nc1ccc(CC)cc1)C1CCN(C(C)=O)CC1` gave PKD1 inh 0, GALR2 ag -1.4, RGS16-Gao 105, HSV augment inactive and HSV augment primary fold 0.9.
Screening O=S(=O)(c1ccccc1)N1CCN(c2nnnn2-c2ccccc2)CC1 returned Insulin prom inh 36, PKD1 inh -2, GALR2 ag -1.1, RGS16-Gao 108, HSV augment inactive, Insulin prom inh cell count 132 and HSV augment primary fold 1.
For CCOC(=O)Nc1cccc(OCC(=O)Nc2ccc(OC)cc2OC)c1 the results were Insulin prom inh -44, PKD1 inh -4, GALR2 ag -2.6, RGS16-Gao 137, HSV augment inactive, Insulin prom inh cell count 152 and HSV augment primary fold 0.95.
`NC(=O)c1ccccc1Br` gave RGS16-Gao 103, HSV augment inactive and HSV augment primary fold 1.1.
`Cc1cc(C)cc(N(CCC(=O)Nc2nnc(C)s2)S(=O)(=O)c2ccc(Cl)cc2)c1` gave Insulin prom inh 23, PKD1 inh -5, GALR2 ag 0.1, RGS16-Gao 109, HSV augment inactive, Insulin prom inh cell count 78 and HSV augment primary fold 0.74.
CCCCn1c(C(C)NC(=O)CC)nc2ccccc21 (stereo not given) was read as PKD1 inh 2, GALR2 ag -2.8, RGS16-Gao 103, HSV augment inactive and HSV augment primary fold 0.98.
Nc1ccccc1SSc1ccccc1N was read as RGS16-Gao 67, HSV augment inactive and HSV augment primary fold 1.1.
CC(=O)c1cccc(-n2nnnc2SCC(=O)Nc2ccccc2N2CCCCC2)c1 was read as PKD1 inh -2, GALR2 ag -0.3, RGS16-Gao 184, HSV augment inactive and HSV augment primary fold 0.93.
For Cc1ccccc1OCCn1cnc2c(N)ncnc21 the results were Insulin prom inh -35, PKD1 inh -6, GALR2 ag 5.8, RGS16-Gao 124, HSV augment inactive, Insulin prom inh cell count 104 and HSV augment primary fold 0.83.
O=C(Cn1c(=S)[nH]c2ccccc2c1=O)NCCc1ccccc1 was read as Insulin prom inh 64, PKD1 inh 0, RGS16-Gao 98, HSV augment inactive, Insulin prom inh cell count 95 and HSV augment primary fold 0.94.
For COC(=O)CCC(=O)OC1(C)C(=O)C=C2C=C(C3CC3)N(CC(C)C)C=C2C1=O (stereo not given) the results were RGS16-Gao 97, HSV augment inactive and HSV augment primary fold 0.79.
`COc1ccc2[nH]c(O)c(N=NC(=N)N)c2c1` gave Insulin prom inh -3, PKD1 inh 11, GALR2 ag -1.9, RGS16-Gao 99, HSV augment inactive, Insulin prom inh cell count 82 and HSV augment primary fold 1.
Cc1nn(Cc2ccc(F)cc2)c(C)c1NC(=O)C1c2ccccc2Oc2ccccc21 was read as Insulin prom inh 7, PKD1 inh 5, GALR2 ag 0.3, RGS16-Gao 103, HSV augment inactive, Insulin prom inh cell count 90 and HSV augment primary fold 0.81.
Screening Cc1ccc(NC(=O)CN2CCN(CCN=CC3=C(O)CC(c4ccccc4)CC3=O)CC2)cc1 (stereo not given) returned Insulin prom inh -7, PKD1 inh -6, GALR2 ag -0.3, RGS16-Gao 101, HSV augment inactive, Insulin prom inh cell count 94 and HSV augment primary fold 1.
For COc1cccc(/C=C/C(=O)OCC(=O)NCc2ccco2)c1 the results were Insulin prom inh -93, PKD1 inh -5, GALR2 ag -1.1, RGS16-Gao 99, HSV augment inactive, Insulin prom inh cell count 157 and HSV augment primary fold 0.99.
`CCCNC(=O)N1CCN(S(=O)(=O)c2ccc(C)cc2)CC1` gave PKD1 inh 1, GALR2 ag -1.0, RGS16-Gao 101, HSV augment inactive and HSV augment primary fold 1.
CCc1nnc(N2C(=O)c3cccc4cccc(c34)C2=O)s1 was read as Insulin prom inh -420, PKD1 inh 0, GALR2 ag -0.7, RGS16-Gao 94, HSV augment inactive, Insulin prom inh cell count 56 and HSV augment primary fold 1.1.
Screening CC1CCN(Cc2cnc(Cl)s2)CC1 returned Insulin prom inh -20, PKD1 inh -5, GALR2 ag -1.0, RGS16-Gao 116, HSV augment inactive, Insulin prom inh cell count 73 and HSV augment primary fold 0.99.
`Cc1nc2cc(C(=O)NCc3ccc4c(c3)OCO4)ccc2n1-c1ccc(Br)cc1` gave Insulin prom inh -20, PKD1 inh -5, GALR2 ag 1.2, RGS16-Gao 100, HSV augment inactive, Insulin prom inh cell count 152 and HSV augment primary fold 0.94.
CCCOc1ccc2oc(=O)c3c(c2c1)CCCN3C(=O)CN1CCc2ccccc2C1 was read as Insulin prom inh -109, PKD1 inh -10, GALR2 ag -0.9, RGS16-Gao 106, HSV augment inactive, Insulin prom inh cell count 97 and HSV augment primary fold 0.69.

Source: PubChem BioAssay (several laboratories)
